# Autofluor counter: counter-screen for toxin protease inhibitors: compound fluorescence | compound autofluorescence counterscreen, microsphere flow cytometry; hits give high values | fluorescence intensity (no concentration beside the values) | 3.1% of 360,000 active;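 active = at least 3 SD above the mean of all compounds, about 16000 in these data; inconclusive = too few beads counted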;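 note: 100 nL of 1 mM stock went into each well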
# ugtP null kill: kills S. aureus RN4220 lacking UgtP. S. aureus RN4220 ugtP deletion, OD600 growth, 16 h; some inactives read as strong as hits. growth inhibition, % (concentration not given with the values). 0.54% of 330,000 active. AID 1259309;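 active = z-score under -3 and OD600 up to 0.15 on both plates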;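 note: plate controls were untreated wells for no effect and antibiotic for full effect; wells of about 80 µL received 100 nL stock; the first replicate is given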
# PrP 5UTR inh: inhibition of PrP 5' UTR reporter expression; inhibition, % (no concentration beside the values); AID 488862; cell-based PrP 5' UTR mRNA reporter, plate reader; 0.35% of 340,000 active;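 active = every replicate at 50% or more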;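 note: 0 = median of the neutral control wells; tested in H4 reporter cells; numbers are from one replicate; inactives centre near -14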
# RN4220 kill: S. aureus RN4220 growth inhibition. OD600, 16 h. inhibition, % (concentration not given with the values). 0.33% of 330,000 active. AID 1259311;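 active = z-score of -3 or lower and OD600 up to 0.18 on both plates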;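 note: plate controls were untreated cells for no effect and reference antibiotic for full effect; stock transfer was 100 nL into about 80 µL; one replicate is shown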
# Mtb hypoxia rep: reduces hypoxia-regulated biosensor signal in M. tuberculosis; M. tuberculosis hypoxia-regulated fluorescent reporter, fluorescence; fluorescence inhibition, % (concentration not given with the values); 0.1% of 300,000 active;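 active = 35 to 45% if threefold the growth effect, above 45% if 1.5-fold the growth effect; inactive = the rest, general growth blockers included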;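 note: wells of about 50 µL received 100 nL stock; 0% = vehicle wells and 100% = reference inhibitor wells; whole bacteria with a GFP reporter of the hypoxia response; strong numbers were not always called active; many hits fall short of the cut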
# BJeLR viability: BJeLR cell viability loss; AID 1554; inhibition, % (concentration not given with the values); BJeLR (HRASV12) viability, CellTiter-Glo ATP luminescence, 48 h; reference of the scale not given here; 0.17% of 300,000 active;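 active = replicate mean above 50%; inconclusive = above 50% but judged a plate artefact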;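 note: 50 nL library stock added to about 25 µL; numbers are from one replicate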
# Mtb hypoxia rep growth: second read-out of Mtb hypoxia rep, no call of its own (marks repeat the call); growth inhibition, %; measured here: M. tuberculosis growth (absorbance);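 0% = vehicle and 100% = reference antibiotic; read after six days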
# Starred values were filed as active, the others as inactive; ? = inconclusive; / = not tested or not shown.
# A first look (two entries):
# Below each compound – BJeLR viability, RN4220 kill, Mtb hypoxia rep growth, Autofluor counter, ugtP null kill, PrP 5UTR inh, Mtb hypoxia rep
O=C(O)c1cccc(NN=Cc2cn(-c3ccccc3)nc2-c2cccs2)c1
  /, 8.9, 8, /, 14, /, 9
Cc1cc2nc(-c3ccc[nH]c3=O)n(Cc3cccc(F)c3)c2cc1C
  4, 1.3, 4, 3579, 1, -25, 8

# All compounds of this part, from the start:
# Below each compound – BJeLR viability, RN4220 kill, Mtb hypoxia rep growth, Autofluor counter, ugtP null kill, PrP 5UTR inh, Mtb hypoxia rep
O=C(O)c1cccc(NN=Cc2cn(-c3ccccc3)nc2-c2cccs2)c1
  /, 8.9, 8, /, 14, /, 9
Cc1cc2nc(-c3ccc[nH]c3=O)n(Cc3cccc(F)c3)c2cc1C
  4, 1.3, 4, 3579, 1, -25, 8
CCN(CC)CCn1c(=S)[nH]c2ccccc2c1=O
  2, 2.0, -1, 9328, -1, -10, -1
CCN(CC)S(=O)(=O)c1ccc(NCCCn2ccnc2)c([N+](=O)[O-])c1
  1, 0.9, 0, 3547, 4, -11, 5
C1=C(c2cccc3ccccc23)N2CCN=C2S1
  8, 3.1, /, 2121, 6, -17, /
Cc1ccn2c(CNCc3cnn(C)c3)c(C(=O)N3CCCCCC3)nc2c1
  -13, 0.4, 7, 5541, 3, -4, 1
Cc1cccc(C(=O)NC(=S)N2CCN(C(=S)NC(=O)c3cccc(C)c3)CC2)c1
  -14, /, /, 1981, /, -27, /
COc1ccc2c(c1)c1nc3n(c(=O)c1n2CC(=O)Nc1ccccc1)CCCS3
  -2, -0.8, -3, 4201, 5, -21, 13
COc1ccccc1NC(=S)NCC1CCCCC1
  -17, 0.2, 0, 2434, 6, -11, 7
O=C(N/N=C/c1c(O)ccc2ccccc12)c1cccnc1
  35, /, /, 3903, /, 32, /
O=C(NC1CCCCCC1)c1cc(-c2ccccn2)nc2ccccc12
  5, 2.4, -2, 2322, -10, -9, 1
S=c1sscc1-c1ccccc1
  /, 6.3, 15, 4062, -3, -33, 14
C/C(=N\Nc1ccc([N+](=O)[O-])cc1)c1ccc(C#N)cc1
  -2, /, /, 4327, /, 9, /
COc1ccc(NC(=O)CC(Cc2ccc(Cl)cc2)C(=O)O)cc1 (stereo unspecified)
  0, 4.2, 19, 3981, 3, -13, 9
O=C(NNC1CC(=O)N(c2ccc(Br)cc2)C1=O)c1ccco1 (stereo unspecified)
  1, 1.4, -1, 4474, 7, -19, 10
O=C(Nc1cccc(S(=O)(=O)N2CCCC2)c1)c1ccccc1OC(F)F
  11, 2.9, -8, 4418, 9, -17, 1
ClCc1nnc(-c2ccccc2)o1
  -1, 7.4, 11, 2143, 18, -12, 19
COc1ccc(S(=O)(=O)N(C)CC2Oc3ccc(NS(C)(=O)=O)cc3C(=O)N(C(C)CO)CC2C)cc1 (stereo unspecified)
  /, 4.2, 8, /, 1, /, 3
CCOC(=O)c1cc(C(C)C)sc1NC(=O)COC(=O)CCS(=O)(=O)c1ccccc1
  -5, 4.3, /, 11122, 1, -27, /
Cc1ccc(C)c(S(=O)(=O)NC(C)CCc2ccccc2)c1 (stereo unspecified)
  -1, 6.5, 9, 3813, 3, -9, 0
COc1ccc(-c2cnc3ccccc3n2)cc1NC(=O)CNC(=O)c1ccccc1
  0, -1.2, 1, 5004, 4, -33, 8
CCN(CC)c1ccc(CN(C(=O)c2cc(OC)c(OC)c(OC)c2)C2CCS(=O)(=O)C2)cc1 (stereo unspecified)
  -11, -14, /, 3207, -6, -67, /
COc1ccccc1N1CCN(C(=O)CSc2nnc3n2C(C)(C)Cc2ccccc2-3)CC1
  12, 6.2, 4, 11165, 1, -12, 0
CCOc1ccc(NC(=S)NCCCN2CCN(c3ccc(OC)cc3)CC2)cc1
  -1, 1.8, 0, 4665, -1, -22, -6
CCOc1ccc(OCC)c(NS(=O)(=O)c2ccc3c(c2)n(C)c(=O)c(=O)n3C)c1
  6, 11, 11, 8834, -1, -35, 5
CCOc1c2c(nc3ccc(Cl)cc13)CCC2
  4, 5.0, /, 11188, 46, -18, /
CCCN(CCC)CC(=O)Nc1cccc2c1OCO2
  0, 4.2, 5, 2554, -5, 2, 5
COc1ccc(C2CC(c3cccs3)=NN2S(C)(=O)=O)cc1OC (stereo unspecified)
  /, 3.9, 8, 4403, 7, -22, 14
Cc1ccc2c(c1)N(CC(=O)NC1CCCc3ccccc31)C(=O)CO2 (stereo unspecified)
  4, -2.4, 11, 9746, -7, -14, 1
Cc1c(C(=O)OCC(=O)Nc2ccc3c(c2)OCO3)cccc1[N+](=O)[O-]
  12, 0.6, 14, 2163, -7, -16, 4

# Single records, as listed above.
# COc1ccc(C2CC(c3cccs3)=NN2S(C)(=O)=O)cc1OC (stereo unspecified) as listed: BJeLR viability = /; RN4220 kill = 3.9; Mtb hypoxia rep growth = 8; Autofluor counter = 4403; ugtP null kill = 7; PrP 5UTR inh = -22; Mtb hypoxia rep = 14
# CCN(CC)c1ccc(CN(C(=O)c2cc(OC)c(OC)c(OC)c2)C2CCS(=O)(=O)C2)cc1 (stereo unspecified) as listed: BJeLR viability = -11; RN4220 kill = -14; Mtb hypoxia rep growth = /; Autofluor counter = 3207; ugtP null kill = -6; PrP 5UTR inh = -67; Mtb hypoxia rep = /

# (continued)
# Below each compound – BJeLR viability, RN4220 kill, Mtb hypoxia rep growth, Autofluor counter, ugtP null kill, PrP 5UTR inh, Mtb hypoxia rep
CCN(CC)C(=O)CN(c1ccc2c(c1)OCO2)S(C)(=O)=O
  8, 4.6, 4, 9670, 9, -25, 18
Cc1ccc(S(=O)(=O)N2CCC(C(=O)O)CC2)cc1
  0, 8.1, 2, 4404, 22, -1, 5
COC(=O)C1=C(C(C)=O)C(c2ccc(C(=O)OC)cc2)n2nnnc2N1 (stereo unspecified)
  5, 6.0, 1, 2532, 1, -28, 8
COc1ccc2c3n([n+]([O-])c2c1)CCN=C3c1ccc(C)cc1
  /, 11, 21, 3223, -1, -15, 14
C=CCNC(=O)c1ccc(-c2cccc([N+](=O)[O-])c2)o1
  -2, -1.2, 2, 2571, -7, -18, 10
CNC(=S)N(CCc1ccc(OC)c(OC)c1)Cc1cc2c(C)cc(C)cc2[nH]c1=O
  9, 4.4, 9, 2412, -12, -10, 4
COc1cnc(SCc2ccc(Cl)cc2Cl)nc1Cl
  8, 11, 8, 7787, 6, -13, 6
O=C1c2ccccc2C(=O)N1N(c1ccccc1)c1ccccc1
  /, -0.5, 7, 2850, 4, -3, 9
CCN(CC)c1nc(N)c([N+](=O)[O-])c(NCCO)n1
  -5, -5.3, -3, 2246, 2, -14, -8
Cc1csc2nc(O)c(C(=O)NC3CCCCC3)c(=O)n12
  8, 5.9, 3, 5457, 2, 1, 15
CCOC(=O)CNC(=O)c1c(C)nn(C)c1Cl
  -1, /, /, 3203, /, -27, /
CCOc1ccc(CCNC(=O)COC(=O)/C=C/c2ccccc2OC)cc1OCC
  5, 4.2, -18, 6122, 5, 3, -8
O=C(Nc1ccc(Cl)cn1)c1cc(S(=O)(=O)N2CCCCC2)ccc1Cl
  1, -0.5, 8, 5007, 27, -3, 2
Cc1c(NC(=O)CSc2nnnn2-c2ccc(F)cc2)c(=O)n(-c2ccccc2)n1C
  4, 7.3, 13, 4399, 2, -19, 8
COc1ccccc1-n1c(O)c(/C=N/N2CCCCC2)c(=O)n(-c2ccccc2OC)c1=S
  1, 2.5, 0, 5824, 8, -24, 11
CC(NS(=O)(=O)c1ccccc1)C(c1cccs1)N1CCOCC1 (stereo unspecified)
  12, -9.3, 14, 4144, -7, -13, 5
O=C(CSc1nnc(CCCO)n1-c1ccccc1)NCCc1ccccc1
  5, 0.7, -3, 6307, 8, -31, 10
N#C/C(=C\Nc1ccccc1SC(F)(F)F)c1nc(-c2ccccc2)cs1
  -3, -9.6, -6, 2229, 17, -20, -3
CCOc1c(C)cnc2c1c(=O)n(Cc1ccccc1F)c(=O)n2C
  4, -0.6, 11, 5259, 8, -9, 9
CCOc1ccccc1N(CC(=O)Nc1ccccc1C(=O)O)S(C)(=O)=O
  -2, 6.5, 25, 9264, -7, -32, -60

# Part of the list above with just Mtb hypoxia rep.
Molecule	Mtb hypoxia rep
O=C(Nc1ccc(Cl)cn1)c1cc(S(=O)(=O)N2CCCCC2)ccc1Cl	2
Cc1c(NC(=O)CSc2nnnn2-c2ccc(F)cc2)c(=O)n(-c2ccccc2)n1C	8
COc1ccccc1-n1c(O)c(/C=N/N2CCCCC2)c(=O)n(-c2ccccc2OC)c1=S	11
CC(NS(=O)(=O)c1ccccc1)C(c1cccs1)N1CCOCC1 (stereo unspecified)	5

# Additional records
# Below each compound – BJeLR viability, RN4220 kill, Mtb hypoxia rep growth, Autofluor counter, ugtP null kill, PrP 5UTR inh, Mtb hypoxia rep
Nc1ccccc1S(=O)(=O)NCCCCc1ccccc1
  0, 1.6, -5, 3561, 0, 9, 15
Cc1ccc2c(Cl)c(C(=O)NCC3CCCO3)sc2c1 (stereo unspecified)
  1, 3.9, 1, 11129, 8, -41, 3
COc1ccc(COC(=O)c2cc([N+](=O)[O-])ccc2N2CCOCC2)cc1F
  55*, 2.5, 19, ?, -3, 2, -2
O=C(/C=C/c1ccc(O)cc1)OCc1occc(=O)c1O[C@@H]1OC(CO)[C@@H](O)[C@H](O)[C@@H]1O (stereo partly specified)
  -7, /, /, 4114, /, -12, /
CNS(=O)(=O)c1cccc(C(=O)OCc2cc(Cl)cc3c2OCOC3)c1
  -3, 6.8, 1, 4111, 8, -11, 5
Cc1cc(SCC#N)n2nc(C)c(-c3ccc(Cl)cc3)c2n1
  2, -0.1, -1, 12069, -6, -12, 0
COc1ccc(C(c2c(NC(=O)c3ccccc3)sc(C)c2C)N2CCN(CCO)CC2)cc1 (stereo unspecified)
  -2, 1.8, -1, 2152, -2, -50, -2
OCCNCc1c(OCc2ccc(Cl)cc2)ccc2ccccc12
  -10, -2.9, -39, 4420, -16, -15, -4
CCN(CC)S(=O)(=O)c1ccc(N2CCCC2)c(NC(=O)C2CCCCC2)c1
  11, -2.8, 10, 5681, 6, -18, 12
CC(C)(C)c1cc(CCC(=O)NN)cc(C(C)(C)C)c1O
  -13, -2.3, -4, 4498, 1, -16, 3
O=C1OCCC1Sc1nnc(-c2cccnc2)n1-c1ccccc1F (stereo unspecified)
  3, 4.6, -1, 3096, 4, -18, -9
CCC(C)NC(=O)Cn1c(=O)n(-c2ccccc2)c(=O)c2ccc(C(=O)NCc3ccco3)cc21 (stereo unspecified)
  /, 0.4, 3, 7939, 4, -18, 9
CCn1ncc(NC(=S)Nc2ccc(OC)c(OC)c2)c1C(N)=O
  0, 4.6, 5, 4769, 6, -14, 3
COc1ccc(CC2S/C(=C(\C#N)C(=O)NCc3ccco3)N(c3ccc(C)cc3)C2=O)cc1 (stereo unspecified)
  -4, 2.6, /, 2859, 3, -21, /
Cc1ccc(NC(=O)NC2CCCCCCC2)c(C)c1
  /, 0.7, 6, 5330, 2, -13, 10
CC1=C(C(=O)OCc2ccccc2)C(c2ccsc2)NC(=O)N1C (stereo unspecified)
  2, -2.6, 11, 1971, 4, -17, 7
CCN(CC)S(=O)(=O)c1cc([N+](=O)[O-])ccc1N1CCC(C(N)=O)CC1
  -4, 2.6, 9, 4490, 7, -22, 13
O=C(O)C1Cc2ccccc2CN1C(=O)COc1ccc(Br)cc1 (stereo unspecified)
  -24, 4.8, 2, 4604, 6, 13, 1
Cn1c(=O)n(Cc2ccccc2)c(=O)c2c1nc1n2CCCN1C1CCCCC1
  -1, 1.2, 15, 3235, -6, 3, 8
CN(Cc1ccccc1)C(=O)C(C(=O)c1ccc(F)cc1)n1cc(Cl)ccc1=O (stereo unspecified)
  0, 5.4, 0, 4243, 17, -11, 2
Clc1ccc(Nc2ncnc3c2cnn3-c2ccccc2)cc1
  -6, 53, 2, 5548, 40, -62, 3
CS(=O)(=O)c1ccc2nc(NC(=O)C3CC3)sc2c1
  1, 3.1, 12, 5925, 3, /, 8
CCC(C)NC(=O)CS(=O)(=O)Cc1nc(-c2cccc(OC)c2)oc1C (stereo unspecified)
  2, -14, 8, 5837, -6, -13, 5
O=C(CN1CCOCC1)NN=Cc1cc2ccccc2nc1Cl
  /, 3.8, 7, /, -3, /, 3
COc1ccc(NC(=O)COC(=O)CCc2ccc(S(=O)(=O)N3CCOCC3)cc2)cc1Cl
  /, 0.5, 5, 2867, 1, 3, 1

# Compound activity as filed in PubChem.
